# Mtb H37Rv: Mycobacterium tuberculosis H37Rv growth inhibition, putative kinase inhibitor library, confirmatory dose response (AID 2842); 24,000 compounds, 5.2% hits; inhibition, % at 10 µg/mL; hits with a dose series show IC90 in µg/mL; M. tuberculosis H37Rv growth inhibition; higher % means a stronger effect; some inactives read as strong as hits;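 active = confirmed in a dose series; about a fifth of its hits are not listed in these tables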;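 also: bacteria incubated one week before Alamar blue readout; 0% = bacteria only wells and 100% = bacteria with high antibiotic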
# An asterisk follows results filed as active. An excerpt (hit frequency here may not be typical).
Structure	Mtb H37Rv
O=C(Nc1nc(-c2ccncc2)cs1)c1ccc2c(c1)OCCO2	-9.0%
Cc1ccc(-c2nnc3ccc(SCC(=O)Nc4cccc(C)c4C)nn23)cc1	-0.3%
COc1ccc(-n2nc3c(c2NC(=O)c2cccc(Br)c2)CS(=O)C3)cc1 (configuration not stated)	8.8%
Cc1ccc2ncnc(NC(CC(C)C)C(=O)O)c2c1 (configuration not stated)	-19.4%
COc1ccc(-c2cc(-c3nc(-c4cccnc4)no3)[nH]n2)c(OC)c1	-3.9%
Cc1cc(=O)[nH]c(O)c1C#N	-4.9%
COc1ccc(N2CC(NS(=O)(=O)c3cccs3)CC2=O)cc1 (configuration not stated)	4.0%
COC(=O)c1sccc1S(=O)(=O)N(CC(=O)Nc1ccc(OC)cc1)c1ccccc1	1.0%
N#C/C(=C\c1ccccc1[N+](=O)[O-])S(=O)(=O)c1ccccc1	-2.7%
COCC(=O)Nc1c(C(=O)Nc2ccc(OC(F)(F)F)cc2)oc2ccccc12	3.1%
Cc1cc(OC(=O)c2ccccc2Cl)c([N+](=O)[O-])c(=O)[nH]1	16.2%
COc1ccc(Cl)cc1-n1nnc(-c2nc(-c3ccncc3)no2)c1N	21.0%
C=CCNC(=O)c1cnc2n(c1=O)CCS2	-2.0%
CC(Nc1ncnc2nc[nH]c12)c1ccccc1 (configuration not stated)	16.1%
Cc1ccc(Cl)cc1NC(=O)CSc1nnc(-c2ccncc2)n1N	13.2%
Cn1c(=O)c2c(nc(N3CCN(CCO)CC3)n2CCSc2nnnn2-c2ccccc2)n(C)c1=O	6.6%
O=C1NC(c2ccc3c(c2)OCO3)C(C(=O)c2ccccc2)C(O)(C(F)(F)F)N1 (configuration not stated)	-5.3%
O=[N+]([O-])c1cccc(S(=O)(=O)Nc2ccc(O)c3ccccc23)c1	9.0%
COc1cccc(NC(=O)C2C(=O)CN(c3ccccc3)C2=O)c1 (configuration not stated)	4.41µg/mL*
O=C(Nc1ccccc1-c1nc2ccccc2s1)c1cc2c(ccc3ccccc32)oc1=O	2.7%
O=C(NC(=S)NCc1cccnc1)c1ccc(Cl)cc1Cl	8.6%
CCc1ccc(/C=N/Nc2ncnc3nc[nH]c23)cc1	21.0%
N#Cc1ccccc1NC(=O)c1ccc(=O)n(Cc2c(F)cccc2Cl)c1	-6.6%
O=C(COc1ccc(Cl)cc1)Nc1nc2c(s1)CSc1ccccc1-2	-2.5%
CCOCCn1c(SCc2cccc(C)c2)nc2c1c(=O)[nH]c(=O)n2C	25.5%
COc1ccc(NC(=O)CSc2nc3c(oc4ccccc43)c(=O)n2Cc2ccco2)cc1OC	-5.7%
N#C/C(=C\c1c[nH]c2ccccc12)C(=O)Nc1cccc([N+](=O)[O-])c1	-1.3%
NC(=O)c1c(NC(=O)COc2ccc(Cl)cc2Cl)sc2c1CCCCC2	-1.6%
COc1ccccc1C1CC(c2c(-c3ccccc3)c3cc(Cl)ccc3[nH]c2=O)=NN1C(=O)CCl (configuration not stated)	75.2%
COc1ccc(OC)c(NC(=O)Cn2cnc3c(cnn3-c3ccccc3)c2=O)c1	57.3%
Cc1ccc(Cn2c(=S)[nH]c3c2c(=O)n(C)c(=O)n3C)cc1	7.0%
CC(=O)N1CCc2c(sc(NC(=O)C3COc4ccccc4O3)c2C(N)=O)C1 (configuration not stated)	22.8%
CCOc1ccc(C(=O)Nc2ccc3c(c2)C(=O)N(C)C3=O)cc1	-4.8%
Cc1ccc(NC(=O)c2oc3ccccc3c2NC(=O)c2ccc(F)cc2)cc1C	1.2%
CCCCNC(=O)c1c(O)nc2sccn2c1=O	78.8%
CC(=O)c1sc(NC(=O)CCCS(=O)(=O)c2ccccc2)nc1C	-0.8%
CC(=O)c1ccc(NC(=O)CSc2ncnc3ccccc23)cc1	-15.8%
CCOC(=O)c1nn(-c2ccc(C(F)(F)F)cc2)c(=O)c2c(NC(=O)Cc3ccc(OCC)cc3)scc12	2.0%
Fc1cccc(CSc2ccc3nnc(-c4ccccc4)n3n2)c1	4.2%
C(=N\Nc1ncnc2nc[nH]c12)/c1ccncc1	19.4%
CCN(CC)S(=O)(=O)c1ccc(C(=O)Nc2nc(-c3ccc(I)cc3)cs2)cc1	0.5%
CCN(CC)S(=O)(=O)c1ccc(C(=O)N2CCN=C2SCc2ccc([N+](=O)[O-])cc2)cc1	-2.1%
O=C(Nc1ccc(Nc2ccccc2)cc1)NC1CC(=O)N(c2ccc3c(c2)OCCO3)C1 (configuration not stated)	80.0%
Cc1nn2c(=O)/c(=C\c3cccnc3)sc2nc1=O	-10.2%
CCOC(=O)c1nn(-c2ccc(Cl)cc2)c(=O)c2c(NC(=O)c3ccc4ccccc4c3)scc12	-5.6%
Cc1ccccc1-n1ncc2c(=O)n(CC(=O)NCc3ccco3)cnc21	-9.0%
O=C(/C=C\c1ccc([N+](=O)[O-])cc1)N1CCN(c2ncnc3c2nnn3Cc2ccccc2)CC1	29.7%
Cc1ccc(N2CC(NS(=O)(=O)c3cccs3)CC2=O)cc1C (configuration not stated)	-2.1%

# Random excerpt: 5 compounds from above.
Structure	Mtb H37Rv
C(=N\Nc1ncnc2nc[nH]c12)/c1ccncc1	19.4%
O=C(Nc1ccc(Nc2ccccc2)cc1)NC1CC(=O)N(c2ccc3c(c2)OCCO3)C1 (configuration not stated)	80.0%
Cc1ccc(N2CC(NS(=O)(=O)c3cccs3)CC2=O)cc1C (configuration not stated)	-2.1%
Cc1nn2c(=O)/c(=C\c3cccnc3)sc2nc1=O	-10.2%
CCN(CC)S(=O)(=O)c1ccc(C(=O)Nc2nc(-c3ccc(I)cc3)cs2)cc1	0.5%

# (cont.)
Structure	Mtb H37Rv
Cc1cccc(NC(=O)CSc2ccc3nnc(-c4cccc(F)c4)n3n2)c1	-1.1%
CC1Cc2nc(SCC(=O)Nc3cc(C(F)(F)F)ccc3Cl)n(C)c(=O)c2S1 (configuration not stated)	22.7%
Cc1cc(C)c(-c2nnc(NC(=O)C(C)Sc3nncn3C)s2)c(C)c1 (configuration not stated)	2.0%
O=C1NC(c2ccccc2)=C([N+](=O)[O-])C(c2ccc(Cl)cc2Cl)N1 (configuration not stated)	18.5%
O=C(CSc1ccc2nnc(-c3ccc(F)cc3)n2n1)NCC1CCCO1 (configuration not stated)	4.5%
CC(C)CNC(=O)C(=O)Nc1cc2c3c(c1)CC(=O)N3CCC2	-0.1%
O=C(Nc1nnc(-c2ccc(Cl)cc2Cl)s1)c1ccc([N+](=O)[O-])cc1	-3.9%
CCC(Sc1nc2ccccc2s1)C(=O)Nc1nnc(-c2cc(OC)ccc2OC)s1 (configuration not stated)	14.9%
O=C(NCCSc1ncc(-c2ccccc2)[nH]1)c1ccc(F)c(F)c1	2.3%
COc1ccc(N2CC(NC(=O)NCC3CCCO3)CC2=O)cc1 (configuration not stated)	-0.9%
O=C(Nc1cccc(-c2nc3cccnc3s2)c1)c1cc2ccccc2oc1=O	3.2%
N#C/C(=C\c1ccco1)c1nc(-c2ccc3ccccc3c2)cs1	0.1%
Fc1ccc2nc(N3CCc4ccccc4C3)sc2c1	12.8%
O=C(NCc1ccccc1Cl)C(=O)Nc1cc2c3c(c1)CCN3C(=O)CC2	-8.3%
CN1CCN(c2ccc(C(=O)NC3CCS(=O)(=O)C3)cc2[N+](=O)[O-])CC1 (configuration not stated)	-2.2%
CCOC(=O)N1CCN(c2ncnc3c2cnn3-c2cccc(Cl)c2)CC1	8.0%
O=C(Nc1nc(-c2ccc3c(c2)OCCO3)cs1)c1ccc(Br)cc1	3.2%
CCOC(=O)CNC(=O)CSc1ncnc2c1nnn2-c1ccc(C)cc1	9.2%
CCCCC(=O)Nc1scc2c(C(=O)OCC)nn(-c3ccc(C(F)(F)F)cc3)c(=O)c12	8.2%
COc1ccc(C(=O)Nc2c(N)nc(SCc3ccc(C)cc3)[nH]c2=O)cc1OC	0.2%
COc1ccc2cc(CCNC(=O)c3ccccc3)c(=O)[nH]c2c1	8.4%
Cc1cc2cc(CCNC(=O)c3cccs3)c(=O)[nH]c2cc1C	-5.9%
O=C(CSc1ncnc2c1nnn2Cc1ccc(F)cc1)NCc1ccc2c(c1)OCO2	4.3%
Cc1c(C)n2c3c(=O)n(CCCO)c(=O)n(C)c3nc2n1-c1ccccc1Cl	-29.8%
COc1cc(C2NC(=O)NC3=C2C(=O)N(Cc2ccc(F)cc2)C3)cc(OC)c1OC (configuration not stated)	-5.2%
CCCCn1c(CNC(=O)C23CC4CC(CC(C4)C2)C3)nnc1SCC(=O)Nc1nnc(C)s1	-12.9%
O=c1cc(CO)oc(C(Nc2ccccn2)c2cccc([N+](=O)[O-])c2)c1O (configuration not stated)	-18.7%
O=C(CCS(=O)(=O)c1ccccc1)Nc1nnc(-c2ccccn2)o1	-5.7%
CN1CCN(c2nc(Nc3ccccc3)c3nccnc3n2)CC1	-0.7%
CC(C)Sc1nc2c(c(=O)[nH]1)C(c1ccc(N(C)C)cc1)C1=C(CC(C)(C)CC1=O)N2 (configuration not stated)	20.2%
COc1ccc(-n2c(=O)[nH]c3c(C(N)=O)nc(-c4cccs4)nc32)cc1	8.2%
Cc1cc(NC(=O)CS(=O)(=O)c2cn(Cc3ccccc3Cl)c3ccccc23)no1	15.2%
Nc1nc(SCC(=O)Nc2ccc([N+](=O)[O-])cc2)[nH]c(=O)c1NC(=O)c1ccccc1	-11.0%
O=C(Nc1c(C(=O)Nc2ccc(Cl)cc2)oc2ccccc12)c1cccc([N+](=O)[O-])c1	11.2%
NC(=O)c1oc2ccccc2c1NC(=O)CCc1ccccc1	-1.0%
CCOc1cccc2sc(Nc3nc4cc5c(cc4s3)OCO5)nc12	78.8%
Cc1ccc(C)c2[nH]c(=O)c(CCNC(=O)c3c(F)cccc3F)cc12	-1.6%
Cc1sc2nc(SCC(=O)NCCO)nc(N)c2c1C	-11.2%
COc1ccc(-c2nc(C(N)=O)c3[nH]c(=O)n(-c4cccc(OC)c4)c3n2)cc1	0.8%
O=c1[nH]c2ccccc2nc1/C=C/c1ccccc1F	-1.7%
O=C(Nc1c2c(nn1-c1ccc(F)cc1)CS(=O)C2)c1cccc(F)c1 (configuration not stated)	-0.5%
O=C(CNc1ccc(F)cc1)Nc1ncc(Cc2ccccc2Cl)s1	12.1%
COc1ccc(-c2nc(SCC(=O)Nc3cc(C)on3)c3c(=O)n(C)c(=O)n(C)c3n2)cc1	7.8%
CCOc1ccccc1NC(=O)c1cnc2sccn2c1=O	3.6%
CC1CCCCN1S(=O)(=O)c1ccc(C(=O)Nc2sc3c(c2C(N)=O)CCN(C)C3)cc1 (configuration not stated)	0.7%
CCOC(=O)c1nn(-c2ccccc2)c(=O)c2c(NC(=O)c3ccc(C)c([N+](=O)[O-])c3)scc12	-11.9%
COC(=O)c1ccccc1NS(=O)(=O)c1cc2c3c(c1)C(C)C(=O)N3CCC2 (configuration not stated)	-6.8%
COc1ccccc1NC(=O)c1oc2ccccc2c1NC(=O)CC(C)C	5.3%
CCOC(=O)c1nn(-c2ccccc2)c(=O)cc1NCc1ccccn1	-18.5%
CC1(C)COc2ccc(NC(=O)Cc3ccc(Cl)cc3)cc2NC1=O	-0.1%
O=c1[nH]cc(S(=O)(=O)NCc2ccc(Cl)cc2)c(=O)[nH]1	2.2%
COc1ccc2nc(Nc3nc4c(F)cccc4s3)sc2c1	23.4µg/mL*
O=C(O)c1n[nH]c2c1CCC2	2.2%
CNC(=O)Cn1cnc2c(nnn2-c2cc(C)cc(C)c2)c1=O	4.2%
O=C(CCCn1c(=S)[nH]c2cc3c(cc2c1=O)OCO3)N1CCN(C(=O)c2ccco2)CC1	3.9%
NC(=O)COc1ccc2c(-c3cc4cc(Cl)ccc4oc3=O)cc(=O)oc2c1	-12.8%
Cc1cc(C)c(NC(=O)CSc2nc3c(c(=O)n2C)SC(C)C3)c(C)c1 (configuration not stated)	-10.0%
O=C(CSc1ccc2nnc(-c3ccc(Cl)cc3)n2n1)Nc1cccc(F)c1	-6.4%
CCOc1cccc(-c2nc3c(c(=O)[nH]2)Cc2cc(Cl)ccc2O3)c1O	-9.5%
CC(C)CNc1nc2c(c(=O)[nH]c(=O)n2C)n1CC(O)COc1ccccc1 (configuration not stated)	-10.2%

# (continued)
Structure	Mtb H37Rv
Cc1ccccc1Cn1cc(SCC(=O)N2CCOCC2)c2ccccc21	7.4%
CCOc1ccc2nc(NC(=O)C34CC5CC(CC(C5)C3)C4)sc2c1	-0.2%
CC(=O)c1ccc(NC(=O)NC2CC(=O)N(c3ccc4c(c3)OCCO4)C2)cc1 (configuration not stated)	-9.7%
COc1cc([N+](=O)[O-])ccc1NC(=O)c1ccc(OC(C)C)cc1	-15.0%
CCOC(=O)c1nn(-c2ccc(Cl)cc2)c(=O)c2c(NC(=O)CCC3CCCC3)scc12	4.1%
COc1ccc(-c2nnc3ccc(SCC(=O)N4CCOCC4)nn23)cc1	16.6%
O=C(Nc1nc2c(cc3c4c(cccc42)CC3)s1)C(c1ccccc1)c1ccccc1	10.3%
COc1ccc(-c2nnc(NC(=O)CSc3nc4ccccc4s3)s2)cc1	-4.9%
COc1ccc2cc(CCNC(=O)c3c(F)cccc3Cl)c(=O)[nH]c2c1	-1.4%
CCN(CCO)C(=O)Cc1cc(=O)[nH]c(=O)[nH]1	-17.7%
CCOC(=O)N1CCN(C(=O)CSc2nc3c([nH]c4ccccc43)c(=O)n2-c2ccc(OCC)cc2)CC1	-2.7%
C=C(C)Cn1c(N2CCC(Cc3ccccc3)CC2)nc2c1c(=O)[nH]c(=O)n2C	-5.2%
COCCNC(=O)NC1CC(=O)N(c2ccc3c(c2)OCCO3)C1 (configuration not stated)	-5.2%
CC(=O)c1ccc(OC(=O)COc2cccc(OCCC(C)C)c2)cc1	-6.8%

# Assay outcomes (PubChem)
